# Compound activity from PubChem BioAssay.
# Ba CapD inh: Bacillus anthracis CapD inhibitors, primary screen, biochemical, fluorescence intensity; 140,000 tested, 0.23% active; CapD gamma-glutamyltranspeptidase (Bacillus anthracis Ames Ancestor); z-score (test concentration not listed); purified CapD enzyme, fluorescence intensity read-out; active compounds read low; some hits fall short of the stated cut;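 active = z-score under -4 in either of two replicates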;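 note: stock transfer was 100 nL into about 40 µL; score is relative to mean and spread of the plate; one replicate is shown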
# AID504770: growth inhibition of E. coli YBA685, primary screen, V. cholerae RctB inhibitors | E. coli YBA685 rctB-dependent plasmid, OD600 growth, 3 h; active compounds read low | z-score (concentration not given with the values) | 130,000 tested, 0.27% active;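 active = z-score under -2 on both plates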;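 note: wells of about 30 µL received 100 nL stock; score is relative to mean and SD of the test wells; the first replicate is given; strong numbers were not always called active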
# * = called active by the depositor; · = no result given; & = joins results of further samples. This is a subset; the hit share may differ from the screen's.
SMILES,AID504770,Ba CapD inh
O=C(COc1ccccc1)n1cc(Br)cn1,-0.2,-0.09
O=C(Cc1cccs1)Oc1ccc2oc3ccccc3c2c1,0,·
Nc1cc(=O)[nH]c(SCc2ccccc2)n1,-0.95,0.06
CC(=O)Nc1ccc(OC(=O)c2cccc(C(F)(F)F)n2)cc1,0.35,-0.055
Cc1ccc(NC(=O)CSc2nc3c(c(=O)n2Cc2ccccc2)SCC3)cc1,1.75,-0.86
CCOC(=O)c1cccc(C(=O)Nc2cccc(NC(=O)c3cccc(C(=O)OCC)n3)n2)n1,-0.7,6.96
COc1ccc(CCNC(=O)CCCn2c(=S)[nH]c3ccc(Br)cc3c2=O)cc1OC,·,-0.495
COc1cc(C)c(S(=O)(=O)Nc2cccc(-c3ccc(N4CCOCC4)nn3)c2)cc1C,-0.85,0.185
Cc1oc2ncnc(N3CCOCC3)c2c1C(=O)NCC1CCCO1 (stereo not drawn),0.75,-0.85
O=C(c1cc2cc(Br)ccc2oc1=O)N1CCSC1c1ccc(Cl)cc1 (stereo not drawn),·,0.415

# Brought forward from above: 4 compounds, then new ones.
SMILES,AID504770,Ba CapD inh
COc1ccc(CCNC(=O)CCCn2c(=S)[nH]c3ccc(Br)cc3c2=O)cc1OC,·,-0.495
COc1cc(C)c(S(=O)(=O)Nc2cccc(-c3ccc(N4CCOCC4)nn3)c2)cc1C,-0.85,0.185
Cc1oc2ncnc(N3CCOCC3)c2c1C(=O)NCC1CCCO1 (stereo not drawn),0.75,-0.85
O=C(c1cc2cc(Br)ccc2oc1=O)N1CCSC1c1ccc(Cl)cc1 (stereo not drawn),·,0.415
Cc1cc(C)n2nc(SCc3nc(N)nc(Nc4ccccc4C)n3)nc2n1,-0.8,·
Cc1ccc(CSc2nc3ccccc3s2)cc1,0.35,0.145
OC(CNCc1ccc(Cl)c(Cl)c1)(c1ccccc1)c1ccc(F)cc1 (stereo not drawn),·,-0.38
C=CCN1C=C(c2ccc3ccccc3n2)C(C#N)c2ccccc21 (stereo not drawn),·,52.7
CCNc1nc(N(C#N)CC)nc(N2CCOCC2)n1,0.1,·
Cc1ccc(-n2ncc(Cl)c(Oc3ccc4ccccc4c3)c2=O)cc1,·,-0.085
Cc1ccc2[nH]c3c(c2c1)SC(C)(C)CC3=O,1.15,7.19
CCOC(=O)C1=C(C(=O)OCC)SC(=C2C(=S)C(C)(C)N(C(=O)C(F)(F)F)c3ccc(OCC)cc32)S1,·,-0.3
CCOc1ccc(NC(=O)C2CCN(S(=O)(=O)CC)CC2)cc1,-0.75,-0.23
Cc1ccc(C2CC(=O)n3nc(N)nc3N2)cc1 (stereo not drawn),0.4,0.14
CC(=O)OC/C=C(C)/C=C/C=C(C)/C=C/C1=C(C)CCCC1(C)C,0.55,-0.615
c1ccc(N2CCN(c3ccccn3)CC2)nc1,-0.75,0.25
Nc1nc(NCc2cccnc2)n[nH]1,0.9,-0.435
CC(=O)N1C(=O)CC(c2ccccc2)Sc2ccccc21 (stereo not drawn),0.15,-0.5
Cc1nn(C)c2c1S(=O)(=O)N=C(SCc1c(F)cccc1Cl)S2,1.55,0.43
Cc1nc2c(nc(C)n2-c2ccccc2)s1,-0.4,-0.21
Nc1ccc2nsnc2c1,-1.05,-2.11
NC(=O)CCNc1ccccc1,0.05,·
CCOC(=O)c1c(C)n(-c2ccccc2)c2c1cc(OC(=O)c1cccc(Cl)c1)c1ccccc12,·,-0.155
CCN(c1ccccc1)S(=O)(=O)c1ccc(Oc2ccc3c4c2CCCN4CCC3)nc1,-0.15,·

# Three structures already listed, ordered by molecular weight, high to low.
SMILES,AID504770,Ba CapD inh
CC(=O)N1C(=O)CC(c2ccccc2)Sc2ccccc21 (stereo not drawn),0.15,-0.5
c1ccc(N2CCN(c3ccccn3)CC2)nc1,-0.75,0.25
Nc1nc(NCc2cccnc2)n[nH]1,0.9,-0.435

# Continued.
SMILES,AID504770,Ba CapD inh
COC(=O)c1ccc(S(=O)(=O)N2CCCCCC2)n1C,·,0.205
CC1(C)CC(=O)C2=C(C1)OC1=C(C(=O)CC(C)(C)C1)C2c1cc(Br)ccc1O,·,0.31
Cc1cc(/C=N/NC(=O)c2cc(C3CC3)nc3ccccc23)cc(C)c1O,·,-0.21
CN(C)S(=O)(=O)c1cccc(CSc2nnc(COc3ccccc3F)n2N)c1,-0.05,·
COc1ccc(N=C2SC(C(=O)N3CCN(c4ccccc4)CC3)CC(=O)N2C)cc1 (stereo not drawn),·,-0.075
COC(=O)C1=C(CSCc2ccco2)NC(=O)NC1c1ccccc1C (stereo not drawn),-1,·
CCCN1C(=O)S/C(=C\c2cn(CC(=O)N3CCOCC3)c3ccccc23)C1=O,-0.15,-0.025
Brc1ccc(C2=Nc3cccc4cccc(c34)N2)o1,·,-1.06
CCCCOc1ccc2c(c1)C(=O)c1cc(OCCCC)ccc1-2,·,-0.305
CCOc1ccc(-c2c(=O)n(O)c3ccccc3[n+]2[O-])cc1,1.85,0.035
CN(Cc1ccccc1)S(=O)(=O)c1ccc2c3c(cccc13)C(=O)N2,0.2,·
CN(C)c1nc(N(C)C)nc(N(C#N)S(=O)(=O)c2ccccc2Cl)n1,-0.65,0.46
Cc1cn[nH]c1/N=C/C1=C(O)c2ccccc2C1=O,-0.55,-1.96
CCCN1CCC(NC(=S)NC2CCCC2)CC1,-1.3,0.535
CCOC(=O)c1cc(-c2ccc(OC)c(S(=O)(=O)N3CC(C)CSc4ccccc43)c2)on1 (stereo not drawn),0.8,-0.705
O=C(COC(=O)c1cccc(O)c1)c1ccc(F)cc1,-1.15,·
O=S(=O)(N1CCCCC1)N(CCO)Cc1ccccc1,-0.65,-0.275
CC(NC(=O)c1ccc(-n2ccc3ccccc32)s1)c1ccc2c(c1)OCCO2 (stereo not drawn),-1,57.4
CS(=O)(=O)c1ccc(CN(Cc2ccccn2)C(=O)c2cccc(C(F)(F)F)c2)cc1,·,0.15
O=c1[nH]c2ccc(Cl)cc2c(-c2ccccc2)c1N1CCOCC1,0.1,·
C#CCOC(=O)Nc1ccccc1OC,-0.5,0.37
Cc1nn(CC(=O)N(C)C)c(=O)c2ccccc12,-0.15,-0.69
CCOC(=O)c1cnc(Sc2ccc(F)c(Cl)c2)nc1C(F)(F)F,0.7,-0.65
COc1cc(OC)cc(C(=O)c2coc3ccc(O)c(CN4CCOCC4)c23)c1,-0.3,·
Cc1ccc2c(CC(=O)O)coc2c1C,-0.15,-0.605
Cc1ccc2c(c1)-c1onc(C(=O)NC3CCCc4ccccc43)c1CO2 (stereo not drawn),0.55,3.72
O=C1CC(c2cccc(O)c2)Oc2ccccc21 (stereo not drawn),-1.15,-0.145
Cc1ccc2cc(CCNC(=O)CCc3ccccc3)c(=O)[nH]c2c1C,-0.85,0.225
COc1ccc2[nH]c(C)c(CCNCC(C)Cc3ccc4c(c3)OCO4)c2c1 (stereo not drawn),0.25,0.555
COCCCN1C(=O)CSC1c1cn(-c2ccccc2)nc1-c1cccs1 (stereo not drawn),0.7,·
CC1=NN(c2cccc(Cl)c2)C(=O)/C1=C/c1ccc(O)cc1,·,-0.185
CCN(CC)c1nc(Nc2ccc(Cl)cc2)nc(N(CC)CC)n1,-0.1,0.465
CCN(/C=N/c1ncc(-c2ccc(Br)cc2)s1)CC,0.8,·
COc1cc(C#N)ccc1OCc1nc(-c2ccc(Cl)cc2)no1,-0.2,-0.035
COC(=O)C(Cc1ccccc1)NC(=O)c1nn(C)c(=O)c2ccccc12 (stereo not drawn),-0.6,·
CC(=O)Nc1ccc(NC(=O)c2cccc(Cl)c2)c(C)c1,-0.5,-0.89
O=C(CSc1c[nH]c2ccccc12)N1CCCCC1,-0.15,-0.2
O=C(Nc1ccccc1)OCc1cccc(COC(=O)Nc2ccccc2)c1F,·,0.485
N#Cc1ccccc1C[N+]1=C(N)c2ccccc2C1,-0.9,-0.535&-0.12
Cc1sc2ncnc(N3CCC(C)CC3)c2c1C,-0.25,·
CCc1ccc(C2=NN(c3ccccc3)C3(SC(C(C)=O)=NN3c3ccc(OC)cc3)c3ccccc32)cc1 (stereo not drawn),·,-0.295
O=C(OCc1ccccn1)c1ccc(COc2ccccc2Cl)o1,-1.1,·
Cc1nn(C)cc1S(=O)(=O)N1CCN(c2ccccn2)CC1,-0.9,11.9
COC(=O)c1cccc(N2C(=O)/C(=C/c3ccc(-c4ccc(Br)cc4)o3)C=C2c2ccccc2)c1,·,1.32
CCN(CC)C(=O)CSc1nnc(-c2ccccc2)c(-c2ccccc2)n1,·,-0.31
CC1Cc2ccccc2N1C(=O)Cn1c(=O)oc2ccccc21 (stereo not drawn),-1.1,0.1
COC(=O)COc1ccc(/C=C2/C(=O)NC(=O)N(c3ccc(C(C)(C)C)cc3)C2=O)cc1OC,·,0.45
CC(C)(C)OC(=O)CSc1nnc(Cc2cccc3ccccc23)n1N,-0.2,·
C=CCOC(=O)C1=C(C)OC(N)=C(C#N)C1c1cccc(Cl)c1 (stereo not drawn),·,1.16
Cc1cccc2c1N(C(=S)Nc1cccc(Cl)c1)CCC2,·,0.215

# (list continues)
SMILES,AID504770,Ba CapD inh
COc1cc(OC)cc(C(=O)Oc2ccccc2NC2=NS(=O)(=O)c3ccccc32)c1,·,0.685
CCC1CCCCN1C(=O)CSc1c2c(nc3ccccc13)CCC2 (stereo not drawn),-0.65,-0.235
Cc1ccc(-c2csc3ncnc(N4CCNCC4)c23)cc1,-0.3,-0.415
O=C(CCN1CCOCC1)NN=C1C2CC3CC(C2)CC1C3,0.4,·
O=S(=O)(NC1CCCCC1)c1ccc(S(=O)(=O)N2CCN3CCCC3C2)cc1 (stereo not drawn),0.9,·
COc1ccccc1N1CCN(CCCNC(=O)c2nn(C)c3c2COc2ccccc2-3)CC1,-0.85,0.22
COc1cc2c(=O)oc(-c3c(-c4c(F)cccc4Cl)noc3C)nc2c(OC)c1OC,-0.6,1.95
CC(C)NC(=O)c1c(Cl)nc2sccn12,0.6,-0.135
O=C(CN1C2=NCCN2c2ccccc21)c1cccc2ccccc12,·,-0.3
CCOC(=O)c1cnc2c(C#N)c(C)nn2c1C,-0.7,30.1
O=c1oc2cc(OCc3ccccc3)ccc2cc1-c1ccccn1,0.75,20.6
CC(C)(C)c1ccc(S(=O)(=O)N2CCCCC2C(=O)O)cc1 (stereo not drawn),-1.1,-0.055
O=C(C(Cc1ccccc1Cl)C(=O)N1CCc2ccccc21)N1CCc2ccccc21,0.25,0.865
COc1ccc(/C=C2\SC(=S)N(CCC(=O)Nc3cccc(C(=O)O)c3)C2=O)cc1OC,·,-0.29
COc1ccc(Cl)cc1C(=O)N/N=C/c1ccc(Br)c(Br)c1,·,0.98
NC(=S)c1sccc1Br,·,-1.34
CN1CCc2c(nnn2-c2ccccc2)C1,0.15,1.23
Cc1cccc(NC(=O)CN2CCC(C)CC2)c1C,-0.3,·
CN(C)c1nc(F)c(F)c(S(=O)(=O)c2ccccc2)c1F,-0.25,-0.53
O=C(CCCN1C(=O)/C(=C/C=C/c2ccccc2)SC1=S)Nc1cccc(F)c1,-1,-0.52
COc1ccc(C(=O)N/N=C/c2sc3ccccc3c2C)cc1,·,-0.595
CC(C)(C)OC(=O)N1CCN(C(=O)c2cccs2)CC1,·,0.06
CCN1CCN(CC(O)COCc2ccccc2)CC1 (stereo not drawn),0.85,0.73
CCCNC(=O)c1ccccc1SC,1.3,-0.195
CC(=O)N/C(=C\c1ccccc1)C(=O)Nc1ccc(O)cc1,-1.2,-1.66
COc1cc(C=C2C(=O)NC(=S)NC2=O)ccc1OCCSc1ccc(C)cc1,·,-0.93
COc1ccc(C2/C(=C(\O)c3ccc(Br)cc3)C(=O)C(=O)N2c2cccc(C(F)(F)F)c2)cc1OC (stereo not drawn),·,-0.63
CC(C)C(=O)Oc1ccc2c(c1)oc(=O)c1ccccc12,-0.2,0.5
CNC(=O)CSc1nnc(-c2ccc3c(c2)OCO3)n1-c1ccccc1,-0.65,·
CCCCCc1c(O)nc(SCCN(CC)CC)n(C(=O)c2ccccc2)c1=O,2.7,-0.165
COC(=O)c1cccc(N2Cc3ccccc3C2=N)c1,0.4,0.625
NC(=O)C1CCN(CC(=O)NCc2ccc3c(c2)OCO3)CC1,-0.65,0.095
O=C(C(c1ccccc1)c1ccccc1)N1CCN(c2ccccn2)CC1,-0.15,·
CN(C)c1cnn(-c2ccccc2)c(=O)c1Cl,0.15,-1.28
O=C(C1CCCCC1)N1CCN(c2cc(C(F)(F)F)nc3ccccc23)CC1,-1,-0.395
C=CCN1C(=O)C2C3c4ccccc4C(C)(c4ccccc43)C2C1=O (stereo not drawn),·,-0.375
CN1CCCN(CC2CC=CCC2)CC1 (stereo not drawn),-0.95,-0.085
CN1C(=O)c2ccccc2Sc2ccc(NC(=O)NC3CC3)cc21,0.35,-0.46
CC(C)S(=O)(=O)C/C(N)=N/OC(=O)c1cc(Cl)cc(Cl)c1,·,-0.405
O=C(Nc1ccc(Br)cc1C(=O)c1ccccc1)c1ccco1,-0.3,0.675
CCn1cc(S(=O)(=O)NCc2cccs2)cn1,0.85,-0.01
CCCc1nc2ccccc2n1CC(O)COc1ccccc1 (stereo not drawn),-0.55,·
Cc1ccc(O)c(C(=O)c2cnn3c(N)nnc3c2)c1,1.8,·
Cn1c(CN2CCOCC2)nnc1SCc1ccc(Cl)cc1,-0.65,-0.78
